Source: PubChem BioAssay (Vanderbilt University)
GIRK2 act: GIRK2 channel activation; AID 1259325; hit rate 0.05% among 63,000; calls only for hits at 25 µM; HEK293-GIRK2 thallium flux, Thallos fluorescence;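 active = among the strongest 0.2% of first-round signals and kept after retests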;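 note: first round at about 10 µM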
Target sequence (P48051 whole entry, looked up): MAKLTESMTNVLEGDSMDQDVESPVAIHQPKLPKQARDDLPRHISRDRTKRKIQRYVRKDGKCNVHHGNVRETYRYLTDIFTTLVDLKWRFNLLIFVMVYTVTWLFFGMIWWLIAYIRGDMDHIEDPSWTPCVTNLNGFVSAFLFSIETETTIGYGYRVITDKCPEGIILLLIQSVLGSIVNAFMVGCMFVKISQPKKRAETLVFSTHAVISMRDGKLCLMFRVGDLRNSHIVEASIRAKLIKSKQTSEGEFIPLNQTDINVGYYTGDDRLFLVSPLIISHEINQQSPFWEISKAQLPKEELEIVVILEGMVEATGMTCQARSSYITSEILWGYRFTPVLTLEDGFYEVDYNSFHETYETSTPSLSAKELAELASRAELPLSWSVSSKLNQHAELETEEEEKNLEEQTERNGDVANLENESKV
Calls only; i = inactive. A portion of the library; rates above refer to the full screens.

SMILES	GIRK2 act
Cc1cc(C)c2c(c1)c(=O)c1c(n2C)CCN(C(=O)Nc2cc(Cl)ccc2C)C1	i
Cc1ccc(NC(=O)c2coc(NC(=O)c3cnccn3)n2)cc1F	i
CCCCN(C)C(=O)C(=O)c1c[nH]c2ccccc12	i
COc1nn(C)cc1C(=O)NCC1CCN(C)CC1	i
COc1ccc(Cl)cc1C(=O)N1CCN(c2ncnc3c2nnn3-c2ccccc2)CC1	i
Cc1cn2c3c(=O)n(CC(=O)c4ccccc4)c(=O)n(C)c3nc2n1C(C)C	i
COc1ccc(-c2cc3nn(CC(=O)Nc4ccc(F)c(Cl)c4)c(=O)n3c(C)n2)cc1	i
COc1ccc(/C=C/c2nc(C#N)c(N3CCN(C(=O)c4ccccc4OC)CC3)o2)cc1	i
CN1CCN(c2nc3c(c(=O)[nH]c(=O)n3C)n2CC(=O)c2ccc(Br)cc2)CC1	i
Cc1[nH]ncc1Br	i
Cc1ccc2oc3c(c(=O)c2c1)C(c1ccc([N+](=O)[O-])cc1)N(c1nc(C)c(C)s1)C3=O (centres undefined)	i
CNC(=O)c1nc(C(=O)NCCc2ccc(OC)c(OC)c2)cs1	i
CCOC(=O)CCC(=O)N1CCC(Oc2nc3ccc(OC)cc3s2)CC1	i
O=S(=O)(Cc1ccc(F)cc1)N1CCN(CC(O)C2CC2)CC1 (centres undefined)	i
Cc1ccccc1NC(=O)CN1CC(c2nc(-c3cccnc3)no2)C1	i
CN1CCCc2cc(C(CNS(=O)(=O)c3cc(F)ccc3F)N3CCOCC3)ccc21 (centres undefined)	i
O=C(Cn1cc(S(=O)(=O)N2CCOCC2)ccc1=O)Nc1ccc(F)cc1	i
CCOC(=O)c1ccc(NC(=O)Cn2c(=O)n(Cc3nc(C)no3)c(=O)c3ccccc32)cc1	i
Cc1csc(SCC2CCN(C(=O)COc3ccc(Cl)cc3Cl)CC2)n1	i
O=C(c1ccco1)N1CCC(CSCc2ccco2)CC1	i
COc1ccccc1OCC(O)CN1CCN(CC(=O)Nc2c(C)cccc2C)CC1 (centres undefined)	i
O=c1c2cc(-c3ccccc3Cl)nn2ccn1Cc1ccc(Br)cc1F	i
COc1cccc(OCC(=O)Nc2cc(C)nn2-c2nc3c(cnn3-c3ccc(C)c(C)c3)c(=O)[nH]2)c1	i
CC(C)c1ccc(CNC(=O)C2CCN(S(=O)(=O)N3CCCC3)CC2)cc1	i
O=C(/C=C/c1cccs1)NCC(O)c1ccoc1 (centres undefined)	i
Cc1cc(C)n(-c2ccc(C(=O)Nc3ccccc3-c3ccccc3)nn2)n1	i
O=C(Cn1nc2c(c1NC(=O)Cc1ccc(F)cc1)CSC2)NCc1ccc(F)cc1	i
CC(=O)c1ccc(NC(=O)Cn2nc3c(SC4CCCCC4)nccn3c2=O)cc1	i
Cc1noc(C2(NC(=O)Nc3ccccc3Cl)CCCCC2)n1	i
COCC(=O)NCCCN1CCN(c2ccccc2)CC1	i
COc1ccc2nc(OC3CCN(C(=O)c4snnc4C)CC3)sc2c1	i
Cc1csc(CN2CCN(C(=O)c3ccccc3C(F)(F)F)CC2)n1	i
COc1ccc(C2CCN(S(=O)(=O)c3cccc(C(F)(F)F)c3)C2)cc1 (centres undefined)	i
Cc1nc2cc(NC(=O)C3(c4ccccc4)CCOCC3)ccc2s1	i
O=C(NCc1nn(C2CCCC2)c(=O)c2ccccc12)c1ccc(C(F)(F)F)cc1	i
CC(C)c1noc(-c2ccnc(-n3cnc(C(=O)NCc4ccco4)c3)c2)n1	i
COCc1nnc(NC(=O)CCCOc2ccc(C(C)(C)C)cc2)s1	i
Cc1cc(C)nc(Nc2nc(CC(=O)Nc3ccc(OC(F)(F)F)cc3)cs2)n1	i
CC1CCN(c2nc3c(c(=O)[nH]c(=O)n3C)n2CCO)CC1	i
Cc1nn(C)c(C)c1S(=O)(=O)NCC(O)c1cccn1C (centres undefined)	i
N#CCN1CC(c2nc(-c3ncccn3)no2)C1	i
CCc1cccc(C)c1NC(=O)Cn1c(C)ncc(-c2nc(-c3ccccc3)cs2)c1=O	i
COc1cc(S(=O)(=O)Nc2cccc(C(=O)O)c2)c(OC)cc1C	i
O=C(Nc1nccs1)c1nnn(-c2ccc(Br)cc2)n1	i
COc1ccc(Oc2c(C(F)(F)F)oc3cc(OC(C)=O)ccc3c2=O)cc1	i
Cc1cc(C)c2c(n1)nn1c(N3CCN(Cc4ccc(Cl)cc4)CC3)cc(C)nc21	i
CCOC(=O)c1ccc(NC(=O)CSc2nc3c4cc(OC)ccc4n(C)c3c(=O)n2CC)cc1	i
CCOC(=O)N1CCC(Nc2ncc3c(=O)n(-c4ccccc4F)c(=O)[nH]c3n2)CC1	i
COc1cccc(Oc2nccn3c(=O)n(CC(=O)Nc4cccc(Br)c4)nc23)c1	i
CCOC(=O)CCC(=O)N1C2CCC1CN(Cc1ccccc1)C2	i
CCC1CCCCN1C(=O)c1cnc2nc(C)ccc2c1Nc1ccc(OC)c(OC)c1 (centres undefined)	i
COc1ccccc1CNC(=O)c1sccc1S(=O)(=O)N1CCN(c2ccc(F)cc2)CC1	i
O=C1CN(C(=O)c2csc(-c3cc4ccccc4[nH]3)n2)CCN1	i
Cc1ccc(CNC(=O)c2ccc(-n3ccnc3SCC(=O)Nc3cc(F)ccc3F)cc2)o1	i
COc1ccc(OCC(O)Cn2c(NCCCOC(C)C)nc3c2c(=O)n(C)c(=O)n3C)cc1 (centres undefined)	i
O=C(NCCC(O)c1ccoc1)C(=O)Nc1cccnc1 (centres undefined)	i
O=C1CCCN1c1ccc(Cn2nc3c(S(=O)(=O)N4CCCCC4)cccn3c2=O)cc1	i
CCOc1ccccc1C(=O)N(C(=O)N1CCCCC1)c1ccc(C)cc1	i
CC(=O)N[C@@H](Cc1ccc(OP(=O)(O)O)cc1)C(=O)N[C@H]1CCC(=O)N2CCC[C@@H](C(=O)NC3CCc4ccccc43)N2C1=O (some centres undefined)	i
COc1ccc(-c2cc3c(=O)n(CC(=O)Nc4cc(C(F)(F)F)ccc4Cl)ccn3n2)cc1	i
(more compounds)
SMILES	GIRK2 act
c1csc(CCNc2nc(N3CCOCC3)c3n[nH]nc3n2)c1	i
COc1ccccc1NC(=O)c1ccc(S(=O)(=O)NC2CC2)o1	i
O=C(NCc1ccc(F)cc1F)c1csc(C(=O)NC2CC2)n1	i
Cc1cc(C)cc(-n2c(C)c(C)n3c4c(=O)n(CC(N)=O)c(=O)n(C)c4nc23)c1	i
COc1ccc(N/C=C(\C#N)c2nc(-c3cccc(Br)c3)cs2)cc1OC	i
COc1ccccc1CNC(=O)c1ccc(=O)n(Cc2ccccc2)n1	i
COc1ccc(CC(C)(O)CNC(=O)C2(c3cccs3)CCCC2)cc1 (centres undefined)	i
N#Cc1c(NC(=O)CCCSc2ccc(Cl)cc2)sc2c1CCC2	i
O=C(Cn1nnn(-c2ccc(NC(=O)COc3ccccc3)cc2)c1=O)NCc1ccco1	i
CN(C)CC1CSCCCN1S(=O)(=O)c1ccc(Br)s1 (centres undefined)	i
Cc1ccccc1NC(=O)NCC1CCN(c2cnccn2)CC1	i
Cc1nn(C)c(C)c1CNC(=O)c1ccc(Nc2nn3c(=O)c4ccccc4nc3s2)cc1	i
COC1CCN(S(=O)(=O)c2cc(C)c(Cl)cc2Cl)CC1	i
COc1cccc(CNC(=O)Cn2ccn3nc(-c4ccc(OC)c(OC)c4)cc3c2=O)c1	i
Cc1ccc2[nH]cc(-c3nc(-c4ccc(C(F)(F)F)cc4)no3)c(=O)c2c1	i
COc1ccccc1N1CC(c2nc3ccccc3n2Cc2ccc(F)cc2)CC1=O (centres undefined)	i
C#CCOCC1CCN(C(=O)NCc2cccs2)CC1	i
Cc1ccccc1NC(=O)Cn1nc(-c2ccccc2)c2sc(N3CCCC3)nc2c1=O	i
Cc1nc(OCC(=O)Nc2nc3ccccc3s2)cc(-n2cccn2)n1	i
COc1ccc(S(=O)(=O)Nc2ccc3c(c2)N(S(=O)(=O)c2ccccc2)CCC3)cc1C	i
COCC(=O)Nc1cc(C)nn1-c1nc2c(cnn2-c2ccccc2)c(=O)[nH]1	i
O=C(c1cnn(-c2ccccc2)n1)N1CCCC(c2nnc(-c3ccccc3F)s2)C1 (centres undefined)	i
Cc1nnc2c(S(=O)(=O)N(Cc3ccc(F)cc3)c3ccc(F)c(F)c3)cccn12	i
O=C(COc1ccc2c(c1)C(=O)CC2)Nc1ccc2c(c1)Cc1ccccc1-2	i
CCN1CCCc2cc(CCNC(=O)C(=O)Nc3cc(C)ccc3C)ccc21	i
O=C(Nc1ccccc1)c1c(Br)sc2c1CCCC2	i
O=C(c1ccc(Cl)s1)N1CCC(Oc2nc3c(F)cc(F)cc3s2)CC1	i
Cc1ccc2nc(C3CN(C(=O)C4(c5cccs5)CCCC4)C3)[nH]c2c1	i
O=C(Cn1nc(-c2ccccc2)c2sc(N3CCCC3)nc2c1=O)Nc1ccc2c(c1)OCO2	i
O=C(NCc1cccc(-c2nccs2)c1)c1cc(=O)c2ccccc2o1	i
CCCc1cc(Nc2ccc(NC(C)=O)cc2)n2nc3nc(C)cc(C)c3c2n1	i
CC1CN(CC(O)COc2cccc3ccccc23)CC(C)O1 (centres undefined)	i
O=C(NC1CCCC1)c1sccc1S(=O)(=O)N1CCN(c2ccc(Cl)cc2)CC1	i
O=C(CN1CCc2nc(NC(=O)C3CC3)sc2C1)OCc1ccccc1	i
O=C(Cn1cc(S(=O)(=O)N2CCCCCC2)ccc1=O)NCc1cccs1	i
Cc1c(C(=O)N2CCNC(=O)C2)nnn1-c1nccs1	i
Cc1cc(C)c2c(C3Oc4ccccc4C3O)cc(=O)oc2c1C (centres undefined)	i
Cc1c(Cl)cccc1NC(=O)C(=O)NCCCn1ccnc1	i
COc1ccc(Br)c(C(=O)NCC2(O)CCOc3ccccc32)c1 (centres undefined)	i
CN(C)C(CNS(=O)(=O)Cc1ccc(C(F)(F)F)cc1)c1cccs1 (centres undefined)	i
O=C(CC1=C/C(=C\c2ccc(C(=O)O)cc2)c2ccc(F)cc21)NCc1ccc(C(=O)c2ccccc2)cc1	i
OC(COCC1CC2CCC1C2)CN1CCN(c2cccc(C(F)(F)F)c2)CC1 (centres undefined)	i
COc1cc(-c2nnc(NC(=O)c3ccccc3Oc3ccccc3)o2)cc(OC)c1OC	i
COc1ccc(Br)c(C(=O)NCCC(O)c2ccccc2)c1 (centres undefined)	i
COc1ccccc1N1CCN(CC(O)COc2ccc(C)cc2)CC1 (centres undefined)	i

Given in CSV form: part of the list above
structure,GIRK2 act
COc1ccccc1N1CCN(CC(O)COc2ccc(C)cc2)CC1 (centres undefined),i
Cc1c(Cl)cccc1NC(=O)C(=O)NCCCn1ccnc1,i

Continued.
SMILES	GIRK2 act
Cc1cc(C(=O)Nc2ccc(N3CCCS3(=O)=O)cc2)no1	i
CCn1c(=O)c2c(nc3n2CCCN3c2cccc(OC)c2)n(C)c1=O	i
O=C(c1cc(=O)c2ccccc2o1)N1CCN(Cc2nnnn2-c2ccc(F)cc2)CC1	i
Cc1cc(CNC(=O)C(=O)NC2CC2)c(C)o1	i
c1ccc(COc2ccc(Nc3ncnc4ccc(-c5ccco5)cc34)cc2)cc1	i
COC(=O)c1ccc(NC(=O)c2csc3nc(-c4ccc(F)cc4)cn23)cc1	i
CS(=O)(=O)CCNCc1ccc(-c2ccc3ncnc(Nc4ccc(OCc5ccccc5)c(C(F)(F)F)c4)c3c2)o1	i
COc1cc(/C=C/c2ccncc2)ccc1OC(=O)c1cccs1	i
Cc1cn2c3c(=O)n(CCC(C)C)c(=O)n(C)c3nc2n1CCc1ccccc1	i
O=C1/C(=C/c2ccc(Br)cc2)Oc2cc(OC(=O)N3CCOCC3)ccc21	i
COc1cccc2cc(C(=O)NCCn3nc(C4CC4)n(-c4ccccc4)c3=O)c(=O)oc12	i
CCC(=O)Nc1ccc(S(=O)(=O)NCC2CCN(C(=O)c3cccnc3)CC2)c(C)c1	i
O=C(Nc1oc2ccccc2c(=O)c1-c1ccccc1)c1cccs1	i
CC(=O)Cc1nsc(NC(=O)c2nnn(-c3ccc(C)cc3)c2C)n1	i
CN1CCC(CNC(=O)NCc2cccs2)CC1	i
O=C(Nc1nccs1)C1CCN(c2ccc(-c3ccco3)nn2)CC1	i
CCC(=O)N1CCCc2ccc(NC(=O)c3cccc(OC)c3)cc21	i
CCCCCCCCCCCCC(O)C(=O)O (centres undefined)	i
CCC(C)c1ccc(OCCCn2c(CO)nc3ccccc32)cc1 (centres undefined)	i
COc1cccc2cc(C(=O)N3CCC4(CC3)OCCS4)oc12	i
Cc1ccc(Cl)cc1NC(=O)CSc1ccc(-n2cnc(C(=O)NC3CC3)c2)nn1	i
CN1CCc2c(sc(NC(=O)/C=C\c3ccccc3)c2-c2nc3ccccc3s2)C1	i
O=C(c1cccc(Br)c1)N1CCC(CSC2=NCCS2)CC1	i

Part of the list above, as a markdown table.
| compound | GIRK2 act |
| --- | --- |
| c1ccc(COc2ccc(Nc3ncnc4ccc(-c5ccco5)cc34)cc2)cc1 | i |
| COC(=O)c1ccc(NC(=O)c2csc3nc(-c4ccc(F)cc4)cn23)cc1 | i |
| CS(=O)(=O)CCNCc1ccc(-c2ccc3ncnc(Nc4ccc(OCc5ccccc5)c(C(F)(F)F)c4)c3c2)o1 | i |
| COc1cc(/C=C/c2ccncc2)ccc1OC(=O)c1cccs1 | i |
| Cc1cn2c3c(=O)n(CCC(C)C)c(=O)n(C)c3nc2n1CCc1ccccc1 | i |
| O=C1/C(=C/c2ccc(Br)cc2)Oc2cc(OC(=O)N3CCOCC3)ccc21 | i |
| COc1cccc2cc(C(=O)NCCn3nc(C4CC4)n(-c4ccccc4)c3=O)c(=O)oc12 | i |
| CCC(=O)Nc1ccc(S(=O)(=O)NCC2CCN(C(=O)c3cccnc3)CC2)c(C)c1 | i |
| O=C(Nc1oc2ccccc2c(=O)c1-c1ccccc1)c1cccs1 | i |
| CC(=O)Cc1nsc(NC(=O)c2nnn(-c3ccc(C)cc3)c2C)n1 | i |
| CN1CCC(CNC(=O)NCc2cccs2)CC1 | i |
| O=C(Nc1nccs1)C1CCN(c2ccc(-c3ccco3)nn2)CC1 | i |
| CCC(=O)N1CCCc2ccc(NC(=O)c3cccc(OC)c3)cc21 | i |
| CCCCCCCCCCCCC(O)C(=O)O (centres undefined) | i |
| CCC(C)c1ccc(OCCCn2c(CO)nc3ccccc32)cc1 (centres undefined) | i |
| COc1cccc2cc(C(=O)N3CCC4(CC3)OCCS4)oc12 | i |
| Cc1ccc(Cl)cc1NC(=O)CSc1ccc(-n2cnc(C(=O)NC3CC3)c2)nn1 | i |
| CN1CCc2c(sc(NC(=O)/C=C\c3ccccc3)c2-c2nc3ccccc3s2)C1 | i |
| O=C(c1cccc(Br)c1)N1CCC(CSC2=NCCS2)CC1 | i |
